Choline anaer gr – choline-fed anaerobic bacterial growth inhibition; AID 1963822; Gram-negative bacterium anaerobic choline minimal medium, absorbance growth; hits give low values; many inactives read as strong as hits in the columns shown; hit rate 0.2% among 55,000; calls only;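 active = growth z-score on choline under -2 at 7 or 20 h with little or no fall on glycerol, limits in tiers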;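 also: stock transfer was 300 nL into about 50 µL; the organism is E. coli; final concentration not given here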
Choline anaer gr early – recorded beside Choline anaer gr, whose call it bears; z-score; measured here: choline growth z-score, timepoint 1;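 score of optical density at 7 h as mean of two plates; lower means less growth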
Starred values were filed as active, the others as inactive; i = inactive; & = joins results of further samples. The list is partial; the hit share may differ from the screen's.

Sample of the layout, 15 compounds:
SMILES | Choline anaer gr | Choline anaer gr early
COc1ccccc1NC(=O)CCc1nc(-c2nn(-c3ccccc3)c(=O)n(C)c2=O)no1 | i | -1.36
Cc1c(C(=O)Nc2ccc(F)cc2)sc2ncnc(N3CCN(C)CC3)c12 | i | 0.28
O=C(c1ccc(N2CCCC2=O)cc1)N1CCC(Cc2ccccc2)CC1 | i | -0.17
CCc1nnc2ccc(NC(C)C)nn12 | i | -1.43
O=C(NCC1CCCO1)N1CCN(c2nc3cc(Br)ccc3n3cccc23)CC1 (stereo not given) | i | -1.04
CC(C)OCCCNC(=O)c1ccc2c(Cl)c3c(nc2c1)CCC3 | i | -0.61
CCC(C(=O)Nc1cccc(C)c1)n1nc(-c2ccc(C)c(S(=O)(=O)N(CC)CC)c2)ccc1=O (stereo not given) | i | 0.63
O=C(Nc1nnc(SCCN2C(=O)c3ccccc3S2(=O)=O)s1)c1ccccc1 | i | 0.72
COc1cc(C(=O)N2CCOCC2)cc(OC)c1OC | i | 0.47
Cc1ccc(CNC2=NCCNC23CCN(S(=O)(=O)c2cc(C)cc(C)c2)CC3)cc1 | i | -0.02
CN(Cc1ccccc1)S(=O)(=O)c1ccc(NC(=O)c2cnccn2)cc1 | i | 0.26
CCCc1ccc(S(=O)(=O)N2CCC(CN3CCCCC3)CC2)cc1 | i | -1.48
COc1ccc(C(=O)N2CCCC(c3cccc(C(=O)N4CCN(c5ccccn5)CC4)c3)C2)cc1 (stereo not given) | i | -1.82
CCc1ccc(NC(=O)c2sc3nc(C)cc(C)c3c2-n2cccc2)cc1 | i | 1.12
Cc1nc(-c2ccc(Cl)c(S(=O)(=O)N3CCCC(C(=O)N4CCN(C)CC4)C3)c2)no1 (stereo not given) | i | -0.35

The whole of this part, repeating the preview:
SMILES | Choline anaer gr | Choline anaer gr early
COc1ccccc1NC(=O)CCc1nc(-c2nn(-c3ccccc3)c(=O)n(C)c2=O)no1 | i | -1.36
Cc1c(C(=O)Nc2ccc(F)cc2)sc2ncnc(N3CCN(C)CC3)c12 | i | 0.28
O=C(c1ccc(N2CCCC2=O)cc1)N1CCC(Cc2ccccc2)CC1 | i | -0.17
CCc1nnc2ccc(NC(C)C)nn12 | i | -1.43
O=C(NCC1CCCO1)N1CCN(c2nc3cc(Br)ccc3n3cccc23)CC1 (stereo not given) | i | -1.04
CC(C)OCCCNC(=O)c1ccc2c(Cl)c3c(nc2c1)CCC3 | i | -0.61
CCC(C(=O)Nc1cccc(C)c1)n1nc(-c2ccc(C)c(S(=O)(=O)N(CC)CC)c2)ccc1=O (stereo not given) | i | 0.63
O=C(Nc1nnc(SCCN2C(=O)c3ccccc3S2(=O)=O)s1)c1ccccc1 | i | 0.72
COc1cc(C(=O)N2CCOCC2)cc(OC)c1OC | i | 0.47
Cc1ccc(CNC2=NCCNC23CCN(S(=O)(=O)c2cc(C)cc(C)c2)CC3)cc1 | i | -0.02
CN(Cc1ccccc1)S(=O)(=O)c1ccc(NC(=O)c2cnccn2)cc1 | i | 0.26
CCCc1ccc(S(=O)(=O)N2CCC(CN3CCCCC3)CC2)cc1 | i | -1.48
COc1ccc(C(=O)N2CCCC(c3cccc(C(=O)N4CCN(c5ccccn5)CC4)c3)C2)cc1 (stereo not given) | i | -1.82
CCc1ccc(NC(=O)c2sc3nc(C)cc(C)c3c2-n2cccc2)cc1 | i | 1.12
Cc1nc(-c2ccc(Cl)c(S(=O)(=O)N3CCCC(C(=O)N4CCN(C)CC4)C3)c2)no1 (stereo not given) | i | -0.35
Cn1nc(C(=O)N2CCCC2)c2c1CCN(C(=O)CCC(=O)N1CCN(C3CCCCC3)CC1)C2 | i | -0.02
Cc1nc(-c2csc(S(=O)(=O)N3CCCC(C(=O)NCCN4CCOCC4)C3)c2)no1 (stereo not given) | i | -0.51
O=C(NCc1ccc2c(c1)OCO2)C1CCn2c(nc3ccccc32)C1 (stereo not given) | i | -0.68
COc1cc2c(=O)n(Cc3ccc(C(=O)NC4CCCC4)cc3)c(=O)n(Cc3ccc(Cl)cc3)c2cc1OC | i | -0.46
COC(=O)CSc1nc2sc3c(c2c(=O)n1-c1ccc(C)cc1)CCCC3 | i | -0.83
COc1ccc(OC)c(CNC(=O)c2ccc(-n3nnc4cccnc43)cc2Cl)c1 | i | 0.65
CCn1c(=O)n(C2=C(CO)CN(CC3CCCCCCC3)CC2)c2ccccc21 | i | 0.57
CCC(C)NC(=O)CN1C(=O)C=C(CC(=O)OC)Nc2cc(C)c(C)cc21 (stereo not given) | i | 0.13
CCOC(=O)CNC(=O)NCC(c1ccccc1)c1c[nH]c2ccccc12 (stereo not given) | i | -0.47
Cc1nc(NC2=NCN(CCCN3CCOCC3)CN2)nc2c(C)cccc12 | i | -1.25
O=C(COc1ccccc1)Nc1cccc(OCc2cc(=O)n3c4c(sc3n2)CCCC4)c1 | i | -1.08
O=C(c1cc(-c2ccc3c(c2)OCCO3)on1)N(Cc1ccc(Cl)cc1)C1CCS(=O)(=O)C1 (stereo not given) | i | 1.06
CCOc1cc(-c2ccccc2)nc2ccc(C(=O)Nc3ccc(OC)c(OC)c3)cc12 | i | 1.24
Cc1nc2nc(N(Cc3cccc(F)c3)S(=O)(=O)c3ccc(Cl)cc3)nn2c(C)c1Cl | i | 1.39
C[C@@H]1CC2C3CCC4=CC(=O)C=C[C@]4(C)[C@@]3(F)[C@@H](O)C[C@]2(C)[C@H]1C(=O)CO (stereo not given in full) | i | 0.49&0.35
CCc1onc(C)c1C1CCCN1Cc1cc(OC)c(OC)c(OC)c1 (stereo not given) | i | -1.01
CC(C)NS(=O)(=O)c1ccc2c(c1)CCN2C(=O)CCC(=O)N1CCCC1 | i | -0.21
Cc1ccc(C(=O)Nc2cc(-c3ccccc3)nn2-c2ccccc2)cc1 | i | -0.96
CN(C)CCNC(=O)C1CCCN(C(=O)c2nnc(C(=O)Nc3ccc(F)cc3)s2)C1 (stereo not given) | i | -0.79
Cn1c(=O)c2nc(SCCC(=O)O)n(Cc3ccccc3)c2n(C)c1=O | i | 0.39
COCc1nnc(-c2sccc2C)o1 | i | -1.66
O=C(Nc1cccc(F)c1)c1cccc(Nc2ncc(-c3ccc(F)cc3)cn2)c1 | i | 0.13
Cc1ccc(Cl)cc1NS(=O)(=O)c1ccc2c(c1)NC(=O)CC(=O)N2 | i | 0.11
NC(N)=NCc1cccc(I)c1 | i | 0.36&-0.18
Cc1ccc2c(c1)N(CCCC(=O)N1CCN(c3c(C)n(C)c(=O)n(C)c3=O)CC1)C(=O)CO2 | i | 0.61
O=C(O)c1cccn2c(=O)c3ccc(F)cc3nc12 | i | 0.84
c1ccc2c(c1)CCCC2C1=NCCN1 (stereo not given) | i | 0.52&0.32&0.78&0.06
Cn1nc(-c2nc(-c3ccccc3)no2)c2c1CCN(S(=O)(=O)c1cccc3nsnc13)C2 | i | -0.46
CCCc1nc(-c2cc3cccc(C)c3nc2N2CCCC2)no1 | i | -0.13
COc1ccc(C2=C(C)C(=O)N(CC(=O)NCc3cc(OC)ccc3OC)S2(=O)=O)cc1 | i | 0.13
COC(=O)c1sc2cccc(F)c2c1S(=O)(=O)N1CCc2ccccc2C1 | i | 0.63
N#CC1=CN(c2ccc(C#N)cc2)c2cc(F)ccc2S1(=O)=O | i | 0.37
COc1ccc(N2C(=O)C(O)=C(S(=O)(=O)c3ccccc3)C2c2ccc(Cl)cc2)cc1 (stereo not given) | i | -0.31
Cc1ccc(-c2noc(CCCn3c(=O)[nH]c4cc5c(cc4c3=O)OCO5)n2)cc1 | i | -1.48
COc1ccc(NC(=O)c2nnc(COCC(=O)N3CCN(c4ccccn4)CC3)s2)cc1 | i | 0.47
Cc1ccnc(Nc2nc(-c3cccc(Cl)c3)cs2)c1 | i | 0.48
CCCCN(C)c1ncnc2onc(-c3ccc(F)cc3)c12 | i | 0.03
CCN1CCN(C(=O)c2nc(-c3nn(-c4ccccc4)c(=O)n(CC)c3=O)no2)CC1 | i | -0.42
C=CCn1c(=O)c(C(=O)Nc2ccccc2F)c(O)c2ccccc21 | i | 0.22
O=C(NCCC1=CCCCC1)c1ccc(-c2cccc(F)c2)nc1 | i | 0.21
O=C(Cc1ccc(F)cc1)N1CCCC1c1ccc(F)cc1 (stereo not given) | i | 0.16
Cc1ccccc1-c1noc(CSc2nc3c(-c4ccccc4)c[nH]c3c(=O)[nH]2)n1 | i | 0.95
Cc1cc(C(N)=O)c2cc(Br)ccc2n1 | i | -0.76
COc1ccc2cc3c(nc2c1)N(S(=O)(=O)c1ccccc1)CC3 | i | 0.6
CC1CCN(S(=O)(=O)c2ccc(-c3nc(C#N)c(N4CCN(C)CC4)o3)cc2)CC1 | i | -0.85

New compounds follow
SMILES | Choline anaer gr | Choline anaer gr early
CCn1c(CN(c2ccc(F)cc2)S(C)(=O)=O)nnc1SCC(=O)N1CCCC1 | i | -0.19
CCOC(=O)c1ccccc1NC(=O)c1nn(-c2ccccc2C)c(=O)cc1OC | i | -0.55
OC[C@H]1O[C@@H](n2cnc3c(NC4CCCC4)ncnc32)[C@H](O)[C@@H]1O | i | 0.61
CCn1c(=O)[nH]c2cc(-c3noc(COc4ccc(Cl)cc4)n3)ccc21 | i | 1.71
CC1(C)CC(=O)C2=C(C1)Nc1ccccc1N(CC(=O)NCc1ccccc1)C2c1ccccc1 (stereo not given) | i | 0.27
Cc1ccc(S(=O)(=O)N2CCOc3ccc(COCc4ccccc4Cl)cc3C2)cc1 | i | 1.2
CCC(C(=O)NCCN1CCCC1)N1C(=O)CCn2nc(C)cc21 (stereo not given) | i | -0.77
COc1ccc(-c2nc(-c3ccc(C)nc3OC)no2)cc1OC | i | -0.06
O=C(NCc1ccc2c(c1)OCO2)C1CCCN(c2ccnc(-c3ccc(F)cc3)n2)C1 (stereo not given) | i | 1.25
Cc1c(C(=O)O)sc2ncnc(Nc3ccccc3)c12 | i | -0.53
COc1cc2c(cc1OC)CN1C(=S)N(C)C(=O)C1C2 (stereo not given) | i | 0.77
Cc1ccc(S(=O)(=O)NCc2ccccc2)cc1 | i | -0.07
COc1ccc(NC(=O)CSC2=Nc3ccccc3N=C(c3ccccn3)C2)cc1Cl | i | -0.85
Clc1cccc(-c2noc(-c3cc(-c4ccccc4)n[nH]3)n2)c1 | i | 0.54
CC1CCN(C(=O)c2ccc3ccnc(N4CCN(c5ccc(Cl)cc5)CC4)c3c2)CC1 | i | -0.92
Cc1cccc(CC(=O)NCCc2sc(-c3cccc(F)c3)nc2C)c1 | i | -2
CCC(CC)C(=O)N1CCN=C1N1CCCC1 | i | -0.44
COc1ccc(C(=O)O)cc1NC(=O)C1Nc2ccccc2S(=O)(=O)N1 (stereo not given) | i | 1.34
CCc1cc(Sc2ccc(NC(=O)Nc3ccc(F)cc3F)cc2)n2ncnc2n1 | i | -0.16
CC(C)Cc1ccc(S(=O)(=O)Nc2cc3[nH]c(=O)[nH]c3cc2Cl)cc1 | i | 0.91
CC1CCN(C(=O)C(C)N2C(=O)CCCc3ccccc32)CC1 (stereo not given) | i | -0.95
Cc1cc(C2CCCN2S(=O)(=O)c2ccc(Cl)s2)on1 (stereo not given) | i | -0.26
Cc1nc(-c2cc(S(=O)(=O)NCc3ccc(OC(C)C)cc3)c(C)s2)cs1 | i | -1.69
COc1ccc(NC(=O)C2CCCN(S(=O)(=O)c3cc(-c4noc(C)n4)cs3)C2)cc1OC (stereo not given) | i | 0.25
Cc1ccc(C(C)C(=O)N2CCC(n3nc(-c4ccccc4)oc3=O)CC2)cc1 (stereo not given) | i | 0.79
CCc1ccc(C2CC(=O)Nc3c2c(C)nn3-c2ccc3nncn3n2)cc1 (stereo not given) | i | -0.72
Cc1nc2c(O)cccc2c(=O)[nH]1 | i | -0.05
COc1ccc(CC(=O)Nc2cccc(-c3nc4cccnc4s3)c2)cc1 | i | -0.02
CCCc1cc(C2CCCN2Cc2cn[nH]c2-c2ccc(OC)cc2)no1 (stereo not given) | i | -0.06
O=C(Nc1ccc(F)cc1)c1nnc(C2CCCN(C(=O)Nc3ccc(F)c(Cl)c3)C2)s1 (stereo not given) | i | -0.08
O=C(c1cc(=O)c2ccccc2o1)N1CCC(CCN2CCCCC2)CC1 | i | -0.82
O=C(c1cc2c(s1)-c1ccccc1S(=O)(=O)C2)N1CC=C(c2ccccc2)CC1 | i | 0.5
CC(C)NC(=O)c1nc(-c2ccc(S(=O)(=O)N(C)C)cc2)no1 | i | -0.14
CC1Cc2ccccc2N1S(=O)(=O)c1ccc2c(c1)NC(=O)CO2 (stereo not given) | i | 1.03
O=C1c2ccccc2C(=O)N1Cc1ccc2c(c1)OCO2 | i | 0.77
COc1ccc(C2CC(=O)C3=C(C2)Nc2onc(C)c2C3c2cc(OC)ccc2OC)cc1 (stereo not given) | i | 1.13
O=C(NCc1ccco1)C1CCN(c2cnc(N3CCCCC3)nc2)CC1 | i | 0.77
COc1cc(OC)c(NC(=O)N2CCCC2c2cc(C)no2)cc1Cl (stereo not given) | i | 0.43
COc1ccccc1Oc1cc(-c2cccc(C(=O)NC(C)c3ccc(C)cc3)c2)ncn1 (stereo not given) | i | 0.63
COc1cc(OC)cc(-c2nc(C(N)=O)c3c(n2)n(-c2ccc(F)cc2)c(=O)n3C)c1 | i | 0.57
Cc1c(C(=O)O)sc2ncnc(NCCC3=CCCCC3)c12 | i | 0.73
CN1CCc2nc(NC(=O)c3cccc(F)c3)sc2C1 | i | -2.76
COc1ccc(N2C(=O)c3cc4ccsc4n3CC2(C)C(=O)NC2CCCC2)cc1Cl (stereo not given) | i | -0.31
CC1(C(=O)NCc2ccc(F)cc2)CCCN(C(=O)c2ccc(Br)cc2)C1 (stereo not given) | i | -0.01
Cc1cc2c(cc1S(=O)(=O)N1CCCC(C(=O)NC(C)C)C1)OCC(=O)N2 (stereo not given) | i | 0.27
CCOC(=O)c1noc2c1COc1ccccc1-2 | i | -0.56
CCS(=O)(=O)Nc1cc(-c2nnc(C)o2)sc1C | i | -0.4
Cc1cccc(NC(=O)Nc2c(C)n(C)n(-c3ccccc3)c2=O)c1 | i | -0.14
Cc1ccccc1-c1ccc(N2CCCC(C(=O)N(CC(C)C)CC(C)C)C2)nn1 (stereo not given) | i | 0.7
Cc1ccc2c(c1)cc(C(=O)NCC1CCCO1)n2C (stereo not given) | i | 0.03
